# D2 ag = Beta-Arrestin HTS for Positive Allosteric Modulators of the Human D2 Dopamine Receptor: Agonists. DiscoveRx PathHunter D2 beta-arrestin, luminescence, 90 min; 100% = 57 uM dopamine signal. activation, % (concentration not given with the values). D(2) dopamine receptor (Homo sapiens), P14416. actives 0.084% (n = 360,000); in the data active = activation above about 40%; inconclusive = about 15% to 40%; inactive = below about 15%; further: compound concentration not given in the record; the text of the record calls up to 30% inactive
#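 Agonist mode: compounds alone added to overnight-plated D2 PathHunter cells for 90 min at 37 C, with 57 uM final dopamine (EC100) defining full response. Beta-arrestin recruitment detected by chemiluminescent reagent, read after 1 h at ambient temperature.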
# TRPV1 PAM = HTS Assay for Compounds that Act as Potentiators of the Vanilloid Receptor 1; potentiation, % at 8.33 µM; actives 0.02% (n = 320,000); TRPV1-expressing cells, Fluo-8 calcium influx, capsaicin EC20 potentiation; host cell line not named in the record; control for the full effect not named in the record; Transient receptor potential cation channel subfamily V member 1 (Homo sapiens), Q8NER1; active means potentiation above 80%; inconclusive means 30% to 80%; inactive means below 30%; further: 0% is about no effect
# Target sequence (Q8NER1 whole entry, looked up): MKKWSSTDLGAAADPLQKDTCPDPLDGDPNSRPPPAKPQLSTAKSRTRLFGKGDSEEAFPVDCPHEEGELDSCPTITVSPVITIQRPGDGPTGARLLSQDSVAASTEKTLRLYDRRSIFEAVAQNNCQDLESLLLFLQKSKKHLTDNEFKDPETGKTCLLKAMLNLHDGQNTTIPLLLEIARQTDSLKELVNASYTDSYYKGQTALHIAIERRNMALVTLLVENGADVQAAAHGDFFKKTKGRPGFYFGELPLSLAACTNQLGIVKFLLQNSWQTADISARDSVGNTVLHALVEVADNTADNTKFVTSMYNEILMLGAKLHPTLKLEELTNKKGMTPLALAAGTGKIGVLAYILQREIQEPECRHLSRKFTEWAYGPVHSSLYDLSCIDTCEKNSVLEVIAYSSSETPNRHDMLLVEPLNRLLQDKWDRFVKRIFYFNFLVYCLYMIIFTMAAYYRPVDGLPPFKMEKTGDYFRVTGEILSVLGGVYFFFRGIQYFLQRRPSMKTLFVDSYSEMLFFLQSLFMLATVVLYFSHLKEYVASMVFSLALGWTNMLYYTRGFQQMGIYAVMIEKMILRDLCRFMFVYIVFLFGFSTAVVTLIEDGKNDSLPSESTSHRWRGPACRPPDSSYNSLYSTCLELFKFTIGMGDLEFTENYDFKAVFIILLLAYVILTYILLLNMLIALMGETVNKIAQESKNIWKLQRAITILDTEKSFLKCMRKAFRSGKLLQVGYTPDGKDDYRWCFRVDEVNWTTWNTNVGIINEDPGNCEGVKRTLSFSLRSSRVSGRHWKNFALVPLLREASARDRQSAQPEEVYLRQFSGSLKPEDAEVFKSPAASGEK
#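 TRPV1-expressing cells were cultured overnight at 35.5C and loaded with Fluo-8 calcium dye for 40 to 90 min at room temperature. After a 10 s baseline, compound was added and calcium influx was read kinetically for 3 min (ex 480/em 520 nm).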
# Sfp inh = qHTS Assay for Inhibitors of Bacillus subtilis Sfp phosphopantetheinyl transferase (PPTase). 4'-phosphopantetheinyl transferase ffp (Bacillus subtilis), Q9F4F7. Biochemical Sfp PPTase activity, qHTS. Potency, µM, inactives show max response, negative = inhibition, actives largely listed as inhibitors. actives 3.5% (n = 310,000); active means well fitted inhibition curve with a large enough effect; inconclusive means small, poorly fitted or top-dose-only effect, or another doubt; inactive means no such curve, though single readings can be large or run the other way;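 further: the enzyme is Sfp with the accession as filed and its product quenches rhodamine fluorescence; potency means the concentration at half of the fitted maximal effect; 0% = enzyme reaction without inhibitor and -100% = no enzyme wells; top concentration of the series not given in the record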
#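 Reaction rates are the 30-min fluorescence difference (ex 525, em 598 nm) in wells containing 15 nM Sfp, 5 uM rhodamine-CoA and 12.5 uM BHQ-2-YbbR at pH 7.6 with 10 mM MgCl2.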
# D2 potentiator = Beta-Arrestin HTS for Positive Allosteric Modulators of the Human D2 Dopamine Receptor: Potentiators; D(2) dopamine receptor (Homo sapiens), P14416; DiscoveRx D2 beta-arrestin cells, luminescence, 90 min; 100% = 57 uM dopamine signal; potentiation, % (test concentration not listed); actives 0.23% (n = 360,000); AID 624464, 2012; active = potentiation of 50% or more; inconclusive = 30% to 50%; inactive = 30% or less;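 further: compound concentration not given in the record; tested on top of an EC20 dose of dopamine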
#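 PathHunter beta-arrestin assay in DiscoveRx D2 cells. Compounds were added with an EC20 of dopamine (50 nM final) for 90 min at 37 deg C. Luminescence was read 1 h after detection reagent, with 57 uM dopamine as the EC100 control.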
# PINK1 modulator = A Quantitative High throughput Screen to Identify Chemical Modulators of PINK1 Expression; PINK1 immunofluorescence, high-content cytometry, 24 h; Potency, µM (series often up to 76.6 µM), for the others: top-dose activation (PINK1 increase), hits mostly activators; actives 0.2% (n = 410,000); active = well fitted activation curve with a large enough effect; inconclusive = small, poorly fitted or top-dose-only effect; inactive = flat fitted curve, though single readings scatter; cell line not stated here;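 further: potency means the concentration at half of the fitted maximal effect; % of control where 0% means no effect; nearly all actives have a fitted effect of over 65% in size; a mitochondrial uncoupler was the plate control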
#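 Readout is PINK1 immunofluorescence, quantified alongside mitochondrial, cell and nuclear markers by laser-scanning microplate cytometry. Cells from a stable line were exposed to compound titrations (5 concentrations) for 24 hours, with CCCP controls.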
# CtBP-E1A blk = qHTS Assay for Inhibitors of the CtBP/E1A Interaction. CtBP / adenovirus E1A interaction (AlphaScreen). AlphaScreen GST-E1A/His-CtBP binding, 1536-well; hits give low values; control for the full effect not named in the record. activity change, % (no concentration beside the values). actives 0.49% (n = 340,000). AID 651724, 2012; in the data active means activity change below about -65%; inconclusive means about -30% to -65%; inactive means above about -30%; further: on the % scale 0 is the no-effect control and ±100 the full control effect; compound concentration not given in the record
#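 GST-E1A and His-tagged CtBP (125 nM each as 5X stock) were preincubated with pin-transferred compound for 2 h at 37 °C in the dark, then glutathione donor and nickel acceptor beads were added for 1 h before AlphaScreen reading.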
# Six1-Eya2 blk = qHTS Assay for Inhibitors of the Six1/Eya2 Interaction; activity change, % (no concentration beside the values); actives 0.56% (n = 360,000); AID 651725, 2012; AlphaScreen GST-Six1/His-Eya2 binding, biochemical; hits give low values; control for the full effect not named in the record; Homeobox protein SIX1 (Homo sapiens) + Protein phosphatase EYA2 (Homo sapiens), …; in the data active = activity change below about -65%; inconclusive = about -30% to -65%; inactive = above about -30%; further: on the % scale 0 is the no-effect control and ±100 the full control effect; compound concentration not given in the record
#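 GST-Six1 + His-Eya2 (5X stock: 250/500 nM); Tris pH 8.0, 300 mM NaCl, 0.05% BSA, 0.02% Tween 20; GSH donor/Ni acceptor beads; 1 h 37 °C dark; AlphaScreen readout.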
# * marks the source's active call; other numbers are inactive results; ? = inconclusive; · = not tested or not shown; & = joins results of further samples; [ ] = dose if it differs, or a comment.
Molecule	D2 ag	TRPV1 PAM	Sfp inh	D2 potentiator	PINK1 modulator	CtBP-E1A blk	Six1-Eya2 blk
Cc1ccn2c(NC3CCCC3)c(-c3ccccn3)nc2c1	-2.8	-3	-7%	-19	28%	-80*	-66*
CC1CCN(CCCNC(=O)C2CC(=O)N(C3CCCCCC3)C2)CC1 (stereo not given)	-2.9	?	8%	12	2.2%	-4	3
COc1ccc(CC2S/C(=N/N=C/c3ccccc3O)NC2=O)cc1 (stereo not given)	-12	26	-1%	-4	14%	8	-2
COc1ccccc1/C=C/C=N/NC(=O)CN1CCN(S(=O)(=O)c2ccc(C)cc2)CC1	1.2	-5	5%	-11	0.1%	1	-15
CCCCc1c(C)c(C#N)c2nc3ccccc3n2c1Nc1c(C)n(C)n(-c2ccccc2)c1=O	-1.7	3	-6%	3	1.7%	-1	-1
COc1cc(OC)c(N2CC34C=CC(O3)C(C(=O)O)C4C2=O)cc1Cl (stereo not given)	0.1	-9	9%	7	-1.4%	3	0
CC1(C)OC(=O)C2=C(C[C@@H](C3CCCC3)O[C@H]2CCc2cccc(Cl)c2)O1	·	·	·	·	7.5%	14	3
COc1ccc(CCNC(=O)C2COc3ccccc3O2)cc1OC (stereo not given)	-1.3	·	·	-1	0.0%	6	-1
O=[N+]([O-])c1ccccc1S(=O)(=O)N1CCCc2ccccc21	-4.0	2	-1%	-3	1.6%	-4	-14
Cc1ccsc1C(=O)NCc1ccc(Cl)cc1	-1.0	·	·	-6	0.8%	-3	8
O=[N+]([O-])c1cc(S(=O)(=O)O)cc([N+](=O)[O-])c1NN(c1ccccc1)c1ccccc1	2.1	-13	-24%	18	5.0%	-5	-8
CCN1CCN(C(=O)/C(=C/c2ccco2)NC(=O)c2ccccc2)CC1	-3.4	-10	8%	-11	1.1%	0	8

# Brought forward from above: five entries; new compounds follow.
Molecule	D2 ag	TRPV1 PAM	Sfp inh	D2 potentiator	PINK1 modulator	CtBP-E1A blk	Six1-Eya2 blk
COc1ccc(CCNC(=O)C2COc3ccccc3O2)cc1OC (stereo not given)	-1.3	·	·	-1	0.0%	6	-1
O=[N+]([O-])c1ccccc1S(=O)(=O)N1CCCc2ccccc21	-4.0	2	-1%	-3	1.6%	-4	-14
Cc1ccsc1C(=O)NCc1ccc(Cl)cc1	-1.0	·	·	-6	0.8%	-3	8
O=[N+]([O-])c1cc(S(=O)(=O)O)cc([N+](=O)[O-])c1NN(c1ccccc1)c1ccccc1	2.1	-13	-24%	18	5.0%	-5	-8
CCN1CCN(C(=O)/C(=C/c2ccco2)NC(=O)c2ccccc2)CC1	-3.4	-10	8%	-11	1.1%	0	8
CCOc1ccc2oc(C(=O)NCc3nc4ccccc4[nH]3)c(C)c2c1	-1.0	9	1%	-13	13%	3	2
COc1ccc(-c2cc(C(F)(F)F)nc(S(=O)(=O)CCCC(=O)Nc3cc(C)on3)n2)cc1OC	-8.9	2	9%	-1	1.0%	5	11
Cc1ccc2c(CC(=O)NCc3ccc4c(c3)OCO4)coc2c1	-1.1	27	21%	-15	-1.3%	-3	-5
O=C(Nc1ccc(S(=O)(=O)NCC2CCCO2)cc1)c1ccc(Cl)cc1[N+](=O)[O-] (stereo not given)	2.6	17	4%	-6	0.7%	-5	-2
Nc1ncc(CCN2CCOCC2)c(-c2ccc(F)cc2)n1	-2.2	7	24%	-1	-1.0%	0	11
CC1CCCCN1c1ccc(N)cc1C(N)=O (stereo not given)	-3.7	-11	-8%	-11	1.9%	-5	-5
O=C(NCc1ccc(F)cc1)c1cc(S(=O)(=O)N2CCCCC2)ccc1N1CCOCC1	-3.0	-29	·	0	1.1%	·	5
CCCCCCN1C[C@@H](O)[C@H](n2cc(COC(=O)c3ccccc3)nn2)C[C@@H]1c1ccc(Cl)cc1	-3.5	·	·	-8	5.6%	0	-7
CCOC(=O)C1=CN2CCCC[C@@H]2CC1=O	-1.0	·	·	-14	2.0%	-4	-10
COc1ccc(NC(=O)CN2c3cccc4cccc(c34)S2(=O)=O)c(OC)c1	-2.0	2	5%	4	-2.1%[38.3 µM]	-3	-1
O=C(O)c1ccccc1OC(C(=O)Nc1cc(Cl)cc(Cl)c1)c1ccccc1 (stereo not given)	-1.4	-3	15%	-7	3.6%	7	6
COc1ccc(N(CC(=O)NC2CCCCC2)C(=O)CCC(=O)Nc2nc(C)cs2)cc1	-4.1	-12	4%	-12	-1.4%	7	5
NC(=O)COC(=O)c1ccc(S(=O)(=O)NCc2ccco2)cc1	-5.2	-2	7%	1	-0.8%	-11	-5
COc1ccc(/C=C2\CCC(C3CCCC3)C2=O)cc1OC (stereo not given)	1.8	-4	-3%	0	1.5%	6	0
O=C(Cn1ccn(-c2ccc(F)c(Cl)c2)c(=O)c1=O)NCCc1ccccc1	-4.2	?	·	0	-0.4%	-7	7
CC1(C(=O)Nc2ccc3c(c2)OCCO3)CCN1C(=O)C/C=C/c1ccccc1 (stereo not given)	-3.9	·	·	-7	0.8%	-8	-8
Cc1ccc(/C=C(/C#N)C(=O)NC(=O)Oc2ccccc2)cc1	-1.8	1	12%	-23	19%[38.3 µM]	-5	1
Nc1nc(SCC(=O)Nc2ccc(F)cc2)[nH]c(=O)c1NC(=O)c1ccc(F)c(F)c1	-7.9	8	-4%	5	1.9%	1	-5
CC1CC(C)CN(c2ccc(C(=O)NCc3ccc4c(c3)OCO4)cc2[N+](=O)[O-])C1 (stereo not given)	2.0	5	0%	-9	0.0%	?	?
O=C(CSc1nc2ccccc2s1)NNC(=S)Nc1ccccc1	2.7	25	?	6	?	6	-2
C=CCOc1ccc(/C(O)=C2/C(=O)C(=O)N(CCCN3CCOCC3)C2c2ccc(OC)cc2)cc1 (stereo not given)	-1.9	0	12%	-8	0.0%	0	0
COc1cc(CCC(=O)OCC(=O)Nc2c(Cl)cccc2Cl)cc(OC)c1OC	-5.8	-1	-10%	-1	2.4%	-2	2
Cc1sc(NC(=O)C2=COCCO2)c(C(N)=O)c1C	-0.4	-11	·	1	-0.7%	-7	?
Cc1c(N2C(=O)/C(=C3\C(=O)N(CC(=O)O)c4ccccc43)SC2=S)c(=O)n(-c2ccccc2)n1C	1.1	0	?	-16	?	·	-5

# Continued, overlapping the part above by 2 compounds.
Molecule	D2 ag	TRPV1 PAM	Sfp inh	D2 potentiator	PINK1 modulator	CtBP-E1A blk	Six1-Eya2 blk
Cc1sc(NC(=O)C2=COCCO2)c(C(N)=O)c1C	-0.4	-11	·	1	-0.7%	-7	?
Cc1c(N2C(=O)/C(=C3\C(=O)N(CC(=O)O)c4ccccc43)SC2=S)c(=O)n(-c2ccccc2)n1C	1.1	0	?	-16	?	·	-5
Cn1c(N)cc(=O)n(C)c1=S	-1.4	·	·	-8	0.3%	-8	-2
O=C(COC(=O)c1cccc(S(=O)(=O)N2CCc3ccccc32)c1)NCc1ccco1	3.1	-2	10%	5	3.2%	0	-25
Cc1cc(C)c(C(=O)Nn2c(C)nc3ccccc3c2=O)cc1C	-2.4	1	12%	24	2.6%	9	-8
CCOc1cccc2cc(C(=O)N3CCOCC3)c(=O)oc12	-3.1	8	27%	3	1.3%	-2	-3
Fc1ccccc1CSc1nnc(-c2cccs2)o1	0.9	-12	-5%	3	·	11	20
C(=N\Nc1nc(-c2ccccc2)cs1)/c1ccco1	12	-3	?	17	1.8%	-26	-11
Cc1ccc(S(=O)(=O)NCC(=O)OCC(=O)c2c(N)n(C)c(=O)n(C)c2=O)cc1	-0.3	-3	17%	13	-0.9%	0	9
CNc1c([N+](=O)[O-])ncn1C	-1.7	-2	18%	-6	0.5%	3	6
COc1ccc(C)cc1NC(=O)C(=O)N1CCCC1	-12	-3	14%	-10	-2.2%	5	-1
C/C(=N\NC(=O)Cn1cnc2ccccc21)c1cccs1	1.6	1	9%	-12	0.2%	1	-7
COc1ccc(CCN2CC(C(=O)NCc3ccc(F)cc3)CC2=O)cc1OC (stereo not given)	-3.3	-1	9%	-2	-1.4%	0	-3
Cc1cccc(C(=O)c2c[nH]cc2-c2ccccc2)c1	-1.2	2	2%	-28	6.2%	-13	-15
COc1ccc(C)cc1NC(=O)c1nc2nc(C)cc(C)n2n1	-2.4	·	·	-9	-0.7%	7	2
CCCCC(=O)N1CC(=O)Nc2ccc(F)cc2C1c1ccc(F)cc1 (stereo not given)	-4.7	-21	-2%	-3	-1.0%&-1.4%	0	2
COc1ccc2c(c1)sc(=NC(=O)CS(=O)(=O)c1ccc(F)cc1)n2C	5.8	11	·	-21	15%	-1	-5
CC1(Cc2ccccc2OC(F)(F)F)C(=O)Nc2ccc(S(=O)(=O)NC3CCCCC3)cc21 (stereo not given)	10	·	·	2	18%	-11	-4
CNC(=O)CSc1nnnn1-c1ccc2c(c1)OCCO2	-0.4	?	-3%	1	3.5%[38.3 µM]	0	0
O=C(CS(=O)(=O)c1c[nH]c2ccccc12)N1CCc2ccccc21	-0.6	6	4%	-2	-0.8%	-1	-7

# Three compounds from above, arranged by the number in Sfp inh, low to high:
SMILES	D2 ag	Sfp inh	D2 potentiator	PINK1 modulator	CtBP-E1A blk	Six1-Eya2 blk
CNC(=O)CSc1nnnn1-c1ccc2c(c1)OCCO2	-0.4	-3%	1	3.5%[38.3 µM]	0	0
CCCCC(=O)N1CC(=O)Nc2ccc(F)cc2C1c1ccc(F)cc1 (stereo not given)	-4.7	-2%	-3	-1.0%&-1.4%	0	2
O=C(CS(=O)(=O)c1c[nH]c2ccccc12)N1CCc2ccccc21	-0.6	4%	-2	-0.8%	-1	-7

# Compound activity deposited in PubChem by National Center for Advancing Translational Sciences (NCATS).

# This is a random part of the collection. Share with any hit: about 3.7%.
